CtBP-E1A blk: CtBP/E1A binding inhibition | AlphaScreen GST-E1A/His-CtBP binding, 1536-well; hits give low values; control for the full effect not named in the record | activity change, % (no concentration beside the values) | 0.49% of 340,000 active | AID 651724; in the data active means activity change below about -65%; inconclusive means about -30% to -65%; inactive means above about -30%; also: % is scaled to controls: 0 for no effect and ±100 for the full control effect; compound concentration not given in the record
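AlphaScreen with 125 nM GST-E1A and 125 nM His-CtBP (5X stocks) in Tris pH 8.0, 300 mM NaCl, BSA, Tween 20, TCEP. Compounds preincubated 2 h at 37 deg C, then glutathione donor/nickel acceptor beads added for 1 h at 37 deg C in dark.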
Six1-Eya2 inh: blocks human Six1 binding to Eya2 | Q15475+O00167 | AID 651725 | activity change, % (test concentration not listed) | AlphaScreen GST-Six1/His-Eya2 binding, biochemical; hits give low values; control for the full effect not named in the record | 0.56% of 360,000 active; in the data active = activity change below about -65%; inconclusive = about -30% to -65%; inactive = above about -30%; also: % is scaled to controls: 0 for no effect and ±100 for the full control effect; compound concentration not given in the record
Target sequence (O00167 whole entry, looked up): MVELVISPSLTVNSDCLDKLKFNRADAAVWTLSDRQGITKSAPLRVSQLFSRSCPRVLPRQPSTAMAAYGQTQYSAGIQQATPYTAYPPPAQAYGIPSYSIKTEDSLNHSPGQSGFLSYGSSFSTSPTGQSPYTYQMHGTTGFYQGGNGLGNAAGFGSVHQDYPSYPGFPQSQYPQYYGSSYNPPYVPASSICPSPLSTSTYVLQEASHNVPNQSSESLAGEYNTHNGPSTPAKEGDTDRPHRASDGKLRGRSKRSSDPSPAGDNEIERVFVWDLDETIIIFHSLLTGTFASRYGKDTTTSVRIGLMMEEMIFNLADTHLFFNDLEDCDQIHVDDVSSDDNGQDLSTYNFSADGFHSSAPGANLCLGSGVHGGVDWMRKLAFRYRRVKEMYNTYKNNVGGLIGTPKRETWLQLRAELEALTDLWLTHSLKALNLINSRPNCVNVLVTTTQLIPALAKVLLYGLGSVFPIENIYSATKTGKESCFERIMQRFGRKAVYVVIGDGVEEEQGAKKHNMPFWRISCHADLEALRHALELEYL
Target sequence (Q15475 whole entry, looked up): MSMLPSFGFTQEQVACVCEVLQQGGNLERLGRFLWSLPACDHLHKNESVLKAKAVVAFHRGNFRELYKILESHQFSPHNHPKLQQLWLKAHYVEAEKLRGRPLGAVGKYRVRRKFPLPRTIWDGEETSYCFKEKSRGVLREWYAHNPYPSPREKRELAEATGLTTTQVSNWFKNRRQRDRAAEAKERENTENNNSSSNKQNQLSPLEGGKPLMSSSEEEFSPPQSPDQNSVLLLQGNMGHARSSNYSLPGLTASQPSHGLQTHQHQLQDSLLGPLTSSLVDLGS
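AlphaScreen luminescence read after one hour at 37 °C in darkness. Pin-transferred compounds met GST-Six1 and His-Eya2 protein (5X stock 250 nM/500 nM) plus glutathione donor and Ni-chelate acceptor beads (5X, 50 ug/mL).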
gsp ag: agonists of gsp mutant (McCune-Albright syndrome); gsp mutant cells, cAMP HTRF, 30 min; control for the full effect not named in the record; 0.13% of 340,000 active; Potency, µM (highest dose often 76.9 µM), inactives show at the top dose activation (cAMP increase), most hits filed as activators; active = well fitted activation curve with a large enough effect; inconclusive = small, poorly fitted or top-dose-only effect, or another doubt; inactive = no such curve, though single readings can be large or run the other way; cell line not stated here;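 also: phosphodiesterase inhibitor Ro 20-1724 added with compounds to block cAMP breakdown; potency is read from the fitted curve at half-maximal effect; nearly all actives have a fitted effect of over 60% in size; about a fifth of the inactives were tested at one dose only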
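Cells in DMEM/10% FBS with G418 were pretreated with compounds in DMSO plus […] (300 uM stock) for 30 min at 37C. cAMP was measured by HTRF (cAMP-d2 plus anti-cAMP antibody-K) after 30 min at room temperature.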
D2 agonist: activates the human D2 dopamine receptor; activation, % (concentration not given with the values); 0.084% of 360,000 active; P14416; DiscoveRx PathHunter D2 beta-arrestin, luminescence, 90 min; 100% = 57 uM dopamine signal; in the data active = activation above about 40%; inconclusive = about 15% to 40%; inactive = below about 15%; also: compound concentration not given in the record; the text of the record calls up to 30% inactive
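DiscoveRx PathHunter D2 beta-arrestin cells (2,100/well) attached overnight, then compound-stimulated 90 min at 37 C in HBSS/10 mM HEPES/0.1% Tween-20 buffer; beta-galactosidase complementation read by luminescence after 1 h at ambient temperature. Dopamine 57 uM final (EC100) as control.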
gsp antagonist: antagonizes gsp, the McCune-Albright syndrome mutation; gsp-mutant cells, cAMP HTRF, 30 min; control for the full effect not named in the record; Potency, µM (doses to about 76.9 µM), for the others: at the top dose activity change, negative = inhibition, hits mostly inhibitors; 0.4% of 340,000 active; AID 624288; active = falling curve of any shape with a large fitted effect; inconclusive = falling curve, mostly with a smaller effect; inactive = flat or rising curve; cell line not stated here;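 also: intracellular cAMP measured with PDE inhibitor Ro 20-1724 present during compound exposure; potency is read from the fitted curve at half-maximal effect; % is scaled to controls: 0 for no effect and ±100 for the full control effect; nearly all actives have a fitted effect of over 65% in size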
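Cells, 2000/well, grown 16–24 h in DMEM 10% FBS with 0.5 mg/ml G418, then compounds plus […] (300 uM addition stock), 30 min at 37C. cAMP read by HTRF (cAMP-d2 and anti-cAMP antibody-K in lysis buffer) after 30 min RT.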
D2 potentiator: human D2 receptor positive allosteric modulation; DiscoveRx D2 beta-arrestin cells, luminescence, 90 min; 100% = 57 uM dopamine signal; P14416; AID 624464; 0.23% of 360,000 active; potentiation, % (test concentration not listed); active = potentiation of 50% or more; inconclusive = 30% to 50%; inactive = 30% or less;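 also: compound concentration not given in the record; tested on top of an EC20 dose of dopamine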
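D2 cells co-treated with compound plus 50 nM dopamine (EC20) for 90 min at 37 deg C to detect potentiation. Beta-arrestin recruitment was read as enzyme-fragment luminescence after 1 h at ambient temperature. Full response was set by 57 uM dopamine.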
* marks the source's active call; other numbers are inactive results; ? = inconclusive; · = no result given; [ ] = another dose, or the depositor's remark.

The line under a structure holds: CtBP-E1A blk	Six1-Eya2 inh	gsp ag	D2 agonist	gsp antagonist	D2 potentiator
1	NC(=O)COC(=O)C1CSC2(c3ccc(F)cc3)CCC(=O)N12 (stereo not drawn)
→ -14	10	-3%[15.4 µM]	-4.9	12%	1
2	O=C(O)c1ccc(N=c2oc3cc(O)ccc3cc2C(=O)NCc2ccccc2)cc1
→ ·	6	-96%[inhibitor]	-3.8	-19%	-7
3	Cc1ccccc1C(=O)N1CCC(C(=O)N(CC(C)C)c2c(N)n(CC(C)C)c(=O)[nH]c2=O)CC1
→ -19	-25	-12%	-0.6	32%	-1
4	O=C(NCc1ccc(F)cc1)C(c1cccs1)N(C(=O)c1csnn1)C1CC1 (stereo not drawn)
→ 4	-2	24%	-1.3	-4%	-13
5	CCOc1ccc(OCC)c(NC(=O)CN(c2ccc(C)cc2)S(=O)(=O)c2c(C)noc2C)c1
→ -7	-17	15%	-4.9	-10%	-5
6	CCOc1c(Br)cc(C(=O)Nc2cccc(S(=O)(=O)N3CCOCC3)c2)cc1OC
→ -10	-20	-53%	3.7	·	-21
7	Cc1ccc(NC(=O)CSc2nc3c(c(=O)[nH]2)CCCC3)cc1C
→ 5	4	?	-2.7	-12%	-8
8	CN1C(=O)C2C(c3ccc(N(C)C)cc3)=NN(Cc3ccccc3)C2C1=O (stereo not drawn)
→ -29	?	6%[15.4 µM]	-2.8	-1%	-7
9	CC(Oc1ccc(Cl)cc1Cl)C(=O)NNC(=O)c1ccncc1 (stereo not drawn)
→ 3	22	-50%[inhibitor]	-2.1	0%	-27
10	CCCCCN1CSC(=S)N(Cc2ccccc2)C1
→ 4	2	-4%	-5.6	-20%	9

Carrying on.
The line under a structure holds: CtBP-E1A blk	Six1-Eya2 inh	gsp ag	D2 agonist	gsp antagonist	D2 potentiator
11	CCC(C(=O)NCCc1ccco1)n1nc(C)c2c(C)n(-c3ccccc3)nc2c1=O (stereo not drawn)
→ 3	-4	2%	7.0	-8%	-7
12	CCOC(=O)c1cn(CC)c2c(ccc3ccccc32)c1=O
→ 49	41	-30%[15.4 µM]	-0.6	-6%	-10
13	CCn1c(SCC(=O)NNC(=O)Cc2ccccc2)nnc1-c1ccncc1
→ 7	0	14%[15.4 µM]	-7.4	2%	-2
14	O=C(NC1CCCCC1)c1cccc2c1C(=O)c1ccc(-c3ccc(OC(F)(F)F)cc3)cc1S2(=O)=O
→ -8	2	6%	-0.5	5%	-3
15	Clc1ccc(-c2ccc(CN3CCCCC3)o2)cc1
→ ·	3	?	-2.9	6%	-66
16	C=CCn1c2ccccc2c(=O)c2cc(C#CC3(O)CCCCC3)ccc21
→ 28	32	·	-1.2	-6%	0
17	Cc1nn(Cc2ccc([N+](=O)[O-])cc2)c(=O)n1-c1cccc(F)c1
→ -21	-4	-15%	-2.0	-2%	-12
18	CCn1nc(C)c(NC(=O)/C=C/c2cnn(C)c2C)c1C
→ 6	5	1%	-0.6	-5%	11
19	CC(C)C(NC(=S)NCc1ccccc1)C(=O)O (stereo not drawn)
→ 5	6	-49%[inhibitor]	-3.0	19%	-8
20	CCc1nn(CC(=O)NCCN2CCN(C)CC2)c(=O)c2cc3c(OC)cccc3n12
→ ·	-1	0%	1.0	0%	-3

Following part.
The line under a structure holds: CtBP-E1A blk	Six1-Eya2 inh	gsp ag	D2 agonist	gsp antagonist	D2 potentiator
21	CC(C)(C)N(Cc1ccccc1)C(=O)COC(=O)C1=NN(c2ccccc2)C(=O)CC1
→ 5	6	-5%	-0.2	-13%	-1
22	CC(C)CN(C(=O)COc1ccc2ccc(=O)oc2c1)C1CCS(=O)(=O)C1 (stereo not drawn)
→ 2	21	?	2.5	?	-8
23	Cc1ccc(N(Cc2ccc([N+](=O)[O-])cc2)C(=O)c2ccco2)cc1C
→ 9	-24	-9%	-3.1	-12%	8
24	CCC[C@@H](NS(=O)(=O)c1ccc(C)cc1)C(=O)Oc1ccc2c3c(c(=O)oc2c1)CCC3
→ -11	-6	?	-1.5	28µM*	3
25	O=C(Nc1ccccc1Cl)c1cccc(NC(=O)C2CCCC2)c1
→ ·	0	-25%	0.3	-15%	15
26	CCOC(=O)Cn1nc(-c2ccc(C)cc2)c2ccccc2c1=O
→ -9	-12	22%[15.4 µM]	-2.5	-19%	-9
27	COc1ccc(OC)c(N/C(=N/C(=S)Nc2ccccc2)Nc2nc(C)cc(C)n2)c1
→ ·	-2	?	-6.1	1%	-11
28	C=CCSc1nnc(Cc2c(C)[nH]c3ccccc23)o1
→ 1	-6	-129%[inhibitor]	-5.2	3%	-5
29	O=C(CNC(=O)c1ccco1)N/N=C/c1ccc(O)c([N+](=O)[O-])c1
→ -10	-1	-16%	-6.9	-6%	-9
30	CN(c1ccc(C(=O)Nc2ccc(Cl)cn2)cc1)S(=O)(=O)c1ccccc1
→ -20	0	-18%	1.5	?	-25

(more compounds)
The line under a structure holds: CtBP-E1A blk	Six1-Eya2 inh	gsp ag	D2 agonist	gsp antagonist	D2 potentiator
31	CC(=O)OCC1OC(OC(C)=O)C(NC(=O)c2cccnc2)C(OC(C)=O)C1OC(C)=O (stereo not drawn)
→ 8	11	-50%	-0.4	2%	-17
32	CCN1CCN(c2c(Cl)cccc2NC(=O)c2cc3ccccc3o2)CC1
→ -26	4	-13%	-3.2	7%	-35
33	CCOc1ccccc1NC(=O)c1ccc(S(=O)(=O)N(C)C)cc1
→ -8	0	?	-3.0	-14%	-2
34	O=C(COC(=O)c1cccc2ccccc12)NCCCc1ccccc1
→ 6	5	-62%[inhibitor]	0.9	6%	-21
35	Cc1c(NCc2ccccc2O)c(=O)n(-c2ccccc2)n1C
→ 6	0	-37%[inhibitor]	-1.7	0%	3
36	O=C(O)C1C2C=CC(C2)C1C(=O)Nc1ccc(C(=O)N2CCCCC2)cc1 (stereo not drawn)
→ -2	0	-64%[inhibitor]	-1.7	5%	6
37	O=C(C[C@@H]1C/C=C\CC[C@H](Cc2ccc(F)cc2)C(=O)OC[C@@H](Cc2ccccc2)NC1=O)NCCO
→ 1	-1	·	-0.8	-9%	-4
38	Cc1c(NC(=S)N/N=C/c2cc([N+](=O)[O-])ccc2O)c(=O)n(-c2ccccc2)n1C
→ ·	-88*	9%	-17	4%	-15
39	Cn1ccnc1/C(=N\NC(=O)c1ccc(O)cc1)c1cccc([N+](=O)[O-])c1
→ -12	-12	-40%[inhibitor]	-6.3	-8%	5
40	O=C(Nc1ccccc1)c1sc2cc(C(F)(F)F)cnc2c1-c1cccs1
→ -2	-1	?	1.0	-15%	-3

Continued:
The line under a structure holds: CtBP-E1A blk	Six1-Eya2 inh	gsp ag	D2 agonist	gsp antagonist	D2 potentiator
41	CC(=O)Nc1c2c(nn1-c1ccc(C)cc1)CSC2
→ -18	1	10%	3.6	11%	-15
42	Cc1ccc(NCc2nc3ccccc3n2C)c(C)c1
→ 0	-20	-5%[15.4 µM]	-2.5	-3%	-11
43	Cc1cccc(C)c1NC(=S)/C(=C(\[O-])c1cccs1)[n+]1ccccc1
→ -18	-5	-2%[15.4 µM]	-12	9%	-6
44	CN(CCOc1ccccc1)C(=O)c1cc(-c2ccco2)nc2ccccc12
→ 4	-11	-29%	-3.2	-16%	5
45	c1ccc(Cn2ncc3c(NCc4ccco4)ncnc32)cc1
→ 8	-3	-28%	-0.2	3%	-6
46	CCOc1ccc(S(=O)(=O)N2CCCCC2)cc1NS(=O)(=O)c1cccs1
→ ·	0	?	-0.6	-5%	7
47	COC(=O)C1=CN(CC2CCCO2)C=C(C(=O)OC)C1c1cc(OC)c(OC)c(OC)c1 (stereo not drawn)
→ -2	4	19%	0.7	-11%	-12
48	COc1ccc(N2C(C)=CS/C2=C(/C#N)c2nnc(N3CCOCC3)n2-c2ccccc2)cc1
→ 7	-1	-33%[inhibitor]	-1.1	-20%	-11
49	O=C(COc1ccccc1)NC(=S)Nc1cccc2cc(O)ccc12
→ -7	-11	?	-1.5	1%	-4
50	CC(C)N1CCC(N2CCN(C3CCCCCC3)CC2CCO)CC1 (stereo not drawn)
→ 0	-15	24%	-0.3	22%	-1

2 records drawn at random from those above:
The line under a structure holds: CtBP-E1A blk	Six1-Eya2 inh	gsp ag	D2 agonist	gsp antagonist	D2 potentiator
42	Cc1ccc(NCc2nc3ccccc3n2C)c(C)c1
→ 0	-20	-5%[15.4 µM]	-2.5	-3%	-11
1	NC(=O)COC(=O)C1CSC2(c3ccc(F)cc3)CCC(=O)N12 (stereo not drawn)
→ -14	10	-3%[15.4 µM]	-4.9	12%	1

Looked up above:
gsp ag result of CCOC(=O)c1cn(CC)c2c(ccc3ccccc32)c1=O reads -30%[15.4 µM]
D2 agonist result of O=C(C[C@@H]1C/C=C\CC[C@H](Cc2ccc(F)cc2)C(=O)OC[C@@H](Cc2ccccc2)NC1=O)NCCO reads -0.8
D2 agonist result of O=C(NCc1ccc(F)cc1)C(c1cccs1)N(C(=O)c1csnn1)C1CC1 (stereo not drawn) reads -1.3

The results go on.
The line under a structure holds: CtBP-E1A blk	Six1-Eya2 inh	gsp ag	D2 agonist	gsp antagonist	D2 potentiator
51	CC(=O)Oc1ccc2oc(=O)c3c(c2c1)CCCN3C(=O)CN1CCN(c2ncccn2)CC1
→ -1	-13	-6%	-1.3	-8%[15.4 µM]	-15
52	Cc1cccc(NS(=O)(=O)c2nnc(NC(=O)c3cccc(C)c3)s2)c1
→ -1	0	5%	-1.0	-12%	-4
53	COc1ccc(Cl)cc1NC(=S)NCc1cccnc1
→ ·	10	-28%	-3.5	-4%	-10
54	O=C(NN=C(Cc1ccccc1)Cc1ccccc1)c1ccc(F)cc1
→ ·	4	-41%[inhibitor]	-2.4	-7%	-10
55	CCOc1cc(CNCc2ccccc2)ccc1OCc1ccc(Cl)cc1
→ 6	4	-54%[inhibitor]	-9.2	6%	-11
56	C=CCN(Cc1nc(-c2ccccc2)no1)C(=O)c1ccco1
→ 1	10	-6%	-4.8	6%	-4
57	O=C(Nc1ccc2sccc2c1)c1ccc(Cl)s1
→ 9	-3	-13%	0.1	-2%	0
58	O=C(C1CCN(S(=O)(=O)c2ccc(-n3cnnn3)cc2)CC1)N1CCCCC1
→ -3	5	26%[15.4 µM]	-6.3	1%	0

Complete entries, quoted from the list. Order of screens: CtBP-E1A blk, Six1-Eya2 inh, gsp ag, D2 agonist, gsp antagonist, D2 potentiator
`Cc1ccccc1C(=O)N1CCC(C(=O)N(CC(C)C)c2c(N)n(CC(C)C)c(=O)[nH]c2=O)CC1` reads -19, -25, -12%, -0.6, 32%, -1
`C=CCn1c2ccccc2c(=O)c2cc(C#CC3(O)CCCCC3)ccc21` reads 28, 32, ·, -1.2, -6%, 0
`COc1ccc(Cl)cc1NC(=S)NCc1cccnc1` reads ·, 10, -28%, -3.5, -4%, -10
`CCOc1ccccc1NC(=O)c1ccc(S(=O)(=O)N(C)C)cc1` reads -8, 0, ?, -3.0, -14%, -2
